Bioassay records (PubChem BioAssay)
PV pol inh: inhibitors of poliovirus RNA polymerase binding and polymerization | poliovirus polymerase elongation, fluorescence polarization; hits give low values | actives 0.66% (n = 150,000) | % elongation, % (compound at 16.7 µg/mL) | AID 588519 | P03300; in the data active = % elongation below about 90%; note: some results filed as inactive read as strong as hits
Mtb MbtI inh: blocks the Mycobacterium tuberculosis siderophore enzyme MbtI; actives 0.89% (n = 100,000); purified MbtI enzyme, fluorescence intensity read-out; inhibition, %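 (about 17 µg/mL by stock and volumes)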; P9WFX0; AID 493033;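 active = above 50% in both replicates, above 80% if mildly self-fluorescent; inactive = the rest, strongly fluorescent compounds included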;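 note: 0% = mean of negative and 100% = mean of positive controls; one replicate is shown; some compounds called inactive have numbers as strong as hits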
Target sequence (P9WFX0 whole entry, looked up): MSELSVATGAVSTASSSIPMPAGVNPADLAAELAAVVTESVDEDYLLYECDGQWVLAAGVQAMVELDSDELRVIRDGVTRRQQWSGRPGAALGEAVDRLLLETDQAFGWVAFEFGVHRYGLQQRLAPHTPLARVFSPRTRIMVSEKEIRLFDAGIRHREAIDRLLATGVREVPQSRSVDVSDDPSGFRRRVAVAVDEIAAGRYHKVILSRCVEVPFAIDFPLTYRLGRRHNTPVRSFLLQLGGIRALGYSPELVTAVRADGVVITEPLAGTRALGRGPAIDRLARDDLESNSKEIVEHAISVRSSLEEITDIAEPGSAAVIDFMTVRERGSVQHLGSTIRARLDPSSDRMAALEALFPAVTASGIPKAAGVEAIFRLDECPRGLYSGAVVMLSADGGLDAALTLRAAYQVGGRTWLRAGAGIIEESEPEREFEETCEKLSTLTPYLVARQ
Mtb MenB inh: Mtb MenB enzyme inhibition. P9WNP5. MenB enzyme assay, absorbance read-out; some hits fall short of the stated cut. inhibition, %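 (about 12 µg/mL by stock and volumes)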. actives 0.43% (n = 100,000). AID 540299;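 active = mean of two replicates above 30%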;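 note: 0% = no compound and 100% = wells with inactive enzyme; the first replicate is given; strong numbers were not always called active; inactives centre near -10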
Target sequence (P9WNP5 whole entry, looked up): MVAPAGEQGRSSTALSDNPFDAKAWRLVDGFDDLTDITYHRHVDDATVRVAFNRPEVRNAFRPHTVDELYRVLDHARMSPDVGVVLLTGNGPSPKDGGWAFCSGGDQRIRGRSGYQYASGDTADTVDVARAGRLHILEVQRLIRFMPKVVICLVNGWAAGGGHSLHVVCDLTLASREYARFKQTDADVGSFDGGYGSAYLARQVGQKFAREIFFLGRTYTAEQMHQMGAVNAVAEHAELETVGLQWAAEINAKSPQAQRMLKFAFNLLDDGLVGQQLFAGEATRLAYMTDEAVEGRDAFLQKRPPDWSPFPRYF
PV pol inh intensity: second read-out of PV pol inh, no call of its own (marks repeat the call); % elongation; measured here: total intensity read-out; formula for this scale not given here;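 total fluorescence in place of polarization; lower means less elongation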
* hit, by the source's call; i = inactive; x = not tested or not shown; & = joins results of further samples.

SMILES	PV pol inh	PV pol inh intensity	Mtb MbtI inh	Mtb MenB inh
O=C(Nc1ccc(I)cc1)c1ccccc1C(=O)c1ccccc1	97.0	108.0	x	-7.5
Cc1cc(-c2ccco2)n(-c2ccccc2)n1	106.0	118.0	x	-5.9
Cc1nc(CCNC(=O)Cc2ccccc2)cs1	105.0	104.0	-1.1	-14.9
O=C(NCc1ccco1)c1c2c(nc3ccccc13)-c1ccccc1CC2	103.0	102.0	i	-43.0
CC1=C(C(=O)Nc2ccccc2)C(c2ccncc2)C(C#N)=C(S)N1 (stereo unspecified)	47.0	244.0	x	-17.0
O=C(Cn1cncn1)N/N=C/c1ccc(O)cc1O	101.0	100.0	18.8	-77.0
COc1ccc(-c2oc(NC(=O)COC(=O)C(C)(C)C)c(C#N)c2-c2ccc(OC)cc2)cc1	106.0	114.0	-90.7	-23.8
Cc1nn(-c2ccccc2)c(N2CCCC2)c1C=Nc1ccc2c(c1)OCO2	104.0	104.0	0.7	-5.8
COc1nc(N(C)C)nc(N(C#N)S(=O)(=O)c2ccc(C)cc2)n1	103.0	101.0	4.3	-22.1
CC(C)(C)OC(=O)N1Cc2[nH]cnc2CC1C(=O)O (stereo unspecified)	103.0	104.0	-4.6	-26.9
CCC(C)SCC(=O)N1CCc2ccccc21 (stereo unspecified)	104.0	104.0	-2.3	x
C/C(=N\NC(=O)c1nc(Cl)c(Cl)c(N)c1Cl)c1cc(O)ccc1O	105.0	103.0	55.7*	-18.7
CC(C)C(=O)OCC(=O)Nc1ccccc1C(=O)Nc1ccc2c(c1)OCO2	101.0	102.0	4.8	-30.8
CCOC(=O)c1c(C)nc2c(c1-c1ccccc1)C(=O)CC(C)(C)C2	101.0	109.0	-13.1	x
CN1CCN(c2ncnc3nc[nH]c23)CC1	101.0	102.0	3.6	7.0
COc1ccc2cc3cc(C(=O)N4CCN(Cc5ccccc5)CC4)oc3nc2c1	99.0	105.0	27.9	4.1
N#C/C(=C(/O)c1ccco1)c1ccccn1	103.0	103.0	25.1	-171.2
Cn1/c(=N/N)sc2ccccc21	102.0	94.0	3.6	-41.3
Cc1cc(F)ccc1NC(=O)c1cc2sccc2n1Cc1ccc(Cl)cc1	102.0	104.0	14.4	6.2
CCCCCC1CC(=O)N(Cc2ccccc2)C(=O)N1 (stereo unspecified)	99.0	99.0	-8.4	11.0
O=C(O)c1ccc(NS(=O)(=O)c2cc3c4c(cccc4c2)C(=O)NC3=O)cc1	102.0	103.0	26.2	-11.0
N#CC1(C#N)[C@H](c2ccoc2)[C@@H](C(=O)Oc2ccccc2)N2c3ccccc3C=C[C@@H]21	121.0	145.0	x	-21.3
CCNc1ncnc2c1nnn2CC	99.0	88.0	86.5*	-46.7
O=C(O)c1ccccc1C(=O)Nc1cccc2ncccc12	75.0	152.0	x	10.0
N=c1c(S(=O)(=O)c2ccccc2)cc2c(=O)n3ccccc3nc2n1Cc1ccco1	103.0	109.0	145.4	-60.6
CCCc1nc2c(o1)NC(N)=C(C#N)C2c1cnn(-c2ccccc2)c1C (stereo unspecified)	102.0	95.0	x	-20.3
Cc1c(CC(N)=O)c(=O)oc2cc(O)c(Cl)cc12	98.0	105.0	89.1	-49.1
CC(=O)NC12CC3CC(C1)CC(C(=O)OCC(=O)c1ccc4c(c1)OCCO4)(C3)C2	103.0	109.0	-3.4	-64.7
CC1=C(C(=O)Nc2ccccc2)C(c2ccccc2)n2c(s/c(=C/c3ccc(C)o3)c2=O)=N1 (stereo unspecified)	101.0	108.0	0.7	-2.7
Cc1c(-c2ccn[nH]2)cnn1-c1c(Cl)cc(Cl)cc1Cl	102.0	94.0	11.6	14.1
Cc1occc1C(=O)Nc1cccc(/C=C/C(=O)O)c1	101.0	103.0	-0.5	3.3
CC(N)Cc1ccc(O)cc1 (stereo unspecified)	102.0	102.0	-10.8	0.5
CCC(C)NC(=O)c1ccc2nc(-c3cccs3)c(-c3cccs3)nc2c1 (stereo unspecified)	103.0	103.0	-12.2	-52.3
COc1cc2c(cc1NC(=O)C(C)OC(=O)c1n[nH]c(=O)c3ccccc13)oc1ccccc12 (stereo unspecified)	101.0	97.0	48.1	-1.2
S=c1nc[nH]c2c1nnn2Cc1ccc(Cl)cc1	101.0	102.0	2.2	-11.0
CN1CCN(CC(=O)Nc2ccc(C(=O)NCC3CCCO3)cc2)CC1 (stereo unspecified)	103.0	98.0	3.8	-40.5
CN(C)c1ccc(C=NCC2CCCN3CCCCC23)cc1 (stereo unspecified)	110.0	103.0	x	-40.0
Cc1cc(Cl)cc2sc(NC(=O)CCCCl)nc12	102.0	95.0	-1.0	x
CCn1cnc2cc(NCc3cccc(OC)c3)ccc21	102.0	104.0	116.2	-20.1
CCC(=O)N1CCN(c2ccc(NC(=S)NC(=O)c3cc4ccccc4o3)cc2Cl)CC1	101.0	102.0	-10.5	-4.3
CC1CCN(C(=O)CSc2ncnc3c2nnn3Cc2ccc(F)cc2)CC1	101.0	101.0	5.3	-23.0
COC(=O)c1ccc(COC(=O)c2ccc(O)cc2)o1	104.0	106.0	-5.9	-33.9
N#Cc1c2c(c(NCCN3CCOCC3)n3c1nc1ccccc13)CCCC2	101.0	103.0	26.2	-1.3
NCC(c1ccc(F)cc1)N1CCOCC1 (stereo unspecified)	101.0	106.0	1.4	4.0
COC(=O)c1ccc(COC(=O)c2ccccc2OC)cc1	101.0	102.0	-9.4	-12.7
CC1(C)CC(=O)C(=Cc2ccc3c(c2)OCCO3)C(=O)C1	106.0	108.0	6.2	x
Cc1ccc(Cn2nnc3c(=O)[nH]c(C4CCN(S(=O)(=O)c5ccc(S(=O)(=O)NC6CC6)cc5)CC4)nc32)cc1	101.0	101.0	-0.9	2.6
CCn1nc(C)c(Oc2ccccc2O)c1C	107.0	100.0	-13.1	-50.7
CCOC(=O)c1ccc2nc(C(F)(F)F)cc(N3CC(C)CC(C)C3)c2c1 (stereo unspecified)	104.0	102.0	-18.1	-6.3
Cc1ccsc1C=Nc1ccc(OC(F)(F)F)cc1	102.0	98.0	-10.4	x
Cc1ccc(C)c(NC(=O)CN(C)C(=O)C2=NNC(=O)CC2)c1	103.0	102.0	3.5	-13.8
Cc1n[nH]c(=S)n1CC(=O)n1c2c(c3ccccc31)CCCC2	100.0	103.0	2.7	-12.6
COC(=O)CSCc1csc(-c2ccc(OC)c(OC)c2)n1	104.0	110.0	102.8	-26.8
Cc1ccc2[nH]c(=O)c(CN(CC3CCCO3)C(=S)NCCCN3CCOCC3)cc2c1 (stereo unspecified)	103.0	102.0	-17.7	30.9
O=C(O)c1cccc(-c2ccc3c(c2)OCO3)c1	102.0	104.0	22.7	-15.0
CSc1nc2ccc(Br)cc2[nH]1	100.0	101.0	18.6	9.5
O=C(CN1C(C(=O)c2ccccc2)=C(N2CCOCC2)c2ccccc2S1(=O)=O)c1ccccc1	105.0	110.0	8.7	-57.7
CN(C)c1ccc(/C=C2\CCC/C(=C\c3ccccc3)C2=O)cc1	115.0	118.0	0.9	-28.8
O=C(c1ccc2c(c1)sc1nc(-c3ccccc3)cn12)N1CCCC1	100.0	103.0	-3.3	0.8
Cc1cnc(NC(=O)CC(C)c2ccccc2)s1 (stereo unspecified)	107.0	110.0	-44.4	-5.2

The results go on:
SMILES	PV pol inh	PV pol inh intensity	Mtb MbtI inh	Mtb MenB inh
CC(OC(=O)C1CC2CCCC(C1)C2=O)C(=O)N1c2ccccc2CC1C (stereo unspecified)	101.0	97.0	3.2	-0.6
O=C(CN1C(=O)C2C3C=CC(C3)C2C1=O)Nc1nnc(C(F)(F)F)s1 (stereo unspecified)	107.0	111.0	x	-13.4
CCn1cc(C(=O)O)c(=O)c2cc(F)c(F)cc21	100.0	97.0	-211.2	-27.3
Cc1nc(C)c(-c2csc(Nc3ccc(O)c(C(=O)O)c3)n2)s1	100.0	99.0	-0.6	15.3
CC(=O)N1N=C(c2c(C)coc2C)CC1c1ccc(Cl)cc1Cl (stereo unspecified)	102.0	104.0	-7.8	-23.2
C=CCSc1nnc(-c2oc3nc(-c4ccccc4)cc(-c4ccccc4)c3c2N)n1C	109.0	116.0	-37.0	-8.1
CN1/C(=C/C(=S)C(C)(C)C)Sc2ccccc21	84.0*	83.0*	x	-40.6
CCOC(=O)C1C(c2ccc(Br)cc2)C(C(=O)OCC)C(O)(C(F)(F)F)NC1(O)C(F)(F)F (stereo unspecified)	102.0	92.0	-3.5	-31.5
Cc1ccc2c(N3CC4CCC(CC4)C3)cc(C(F)(F)F)nc2c1	101.0	108.0	6.1	-19.5
CC(C)(C)C(=O)N(Cc1ccccc1)Cc1ccccc1	96.0	100.0	2.0	-40.2
CC(C)(C)N(Cc1ccccc1)C(=O)CSc1nc2ccccc2o1	101.0	110.0	-3.3	7.1
Cn1c(-c2ccccc2)c(C(=O)CN2CCN(C(=O)c3ccco3)CC2)c2ccccc21	104.0	106.0	17.8	-28.2

Not a retest: an excerpt of the list.
SMILES	PV pol inh	PV pol inh intensity	Mtb MbtI inh	Mtb MenB inh
CC(OC(=O)C1CC2CCCC(C1)C2=O)C(=O)N1c2ccccc2CC1C (stereo unspecified)	101.0	97.0	3.2	-0.6
O=C(CN1C(=O)C2C3C=CC(C3)C2C1=O)Nc1nnc(C(F)(F)F)s1 (stereo unspecified)	107.0	111.0	x	-13.4
CCn1cc(C(=O)O)c(=O)c2cc(F)c(F)cc21	100.0	97.0	-211.2	-27.3
Cc1nc(C)c(-c2csc(Nc3ccc(O)c(C(=O)O)c3)n2)s1	100.0	99.0	-0.6	15.3

Later entries:
SMILES	PV pol inh	PV pol inh intensity	Mtb MbtI inh	Mtb MenB inh
COC(=O)Cn1c(=O)sc2ccccc21	106.0	108.0	x	-8.1
O=C(CSc1nnc(-c2cccnc2)n1-c1ccccc1)NCc1ccccc1	101.0	103.0	-9.8	-22.2
O=C1N/C(=C/c2ccsc2)C(=O)N1Cc1ccccc1F	102.0	103.0	0.6	7.8
CCCn1c(NC(=O)Nc2ccccc2)c2ccccc2nc1=O	97.0	106.0	2.1	-18.4
CCc1ccc(NS(=O)(=O)c2ccc3[nH]cc(C(=O)NCCOC)c(=O)c3c2)cc1	101.0	100.0	1.7	-8.9
Cc1ccc2c(c1)-c1cc(C)nn1C(c1cccnc1)N2 (stereo unspecified)	99.0	104.0	-36.2	-15.8
CCOC(=O)c1c(NC(=O)COC(=O)Cn2cnc3ccccc32)sc2c1CCC(C)C2 (stereo unspecified)	90.0	89.0	-34.7	-21.9
C/C(O)=C(\C#N)C(=O)Nc1cc(Br)ccc1Br	101.0&98.0	100.0&96.0	22.6	-1.7
O=c1[nH]ncc(NCCN2CCOCC2)c1Cl	105.0	101.0	5.3	-26.3
O=C(CSCCN1C(=O)c2ccccc2C1=O)NCc1ccc(F)cc1	104.0	98.0	-5.0	-5.1
O=C(NC1CCCC1)c1ccc(Br)s1	100.0	103.0	-12.6	-12.9
O=C1CN(C(=O)CSc2nnc(Nc3ccccc3F)s2)c2ccccc2N1	108.0	98.0	4.7	-11.3
O=c1[nH]cc(S(=O)(=O)N2CCc3ccccc32)c(=O)[nH]1	96.0	98.0	5.3	-4.4
CCOC(=O)N1CCN(c2c(F)cc3[nH]c(=S)[nH]c3c2Br)CC1	101.0	101.0	-7.3	-18.2
O=C(CCCn1c(=O)oc2ccccc21)N1CCCc2ccccc21	99.0	108.0	1.6	0.5
COC(=O)c1c(-c2ccc(C(C)(C)C)cc2)csc1NC(=O)C1C2CCC(O2)C1C(=O)O (stereo unspecified)	95.0	97.0	62.4	-3.1
N#C/C(=C(/O)c1cc[n+](Cc2ccccc2)cc1)c1nc2ccccc2[nH]1	96.0	96.0	x	-77.5
CC(C)(C)P(=O)(N1CCOCC1)N1CCOCC1	105.0	109.0	-2.6	-13.7
CN(C)/N=C(\N)c1ccc(Cl)cc1	102.0	93.0	-8.3	-6.0
COc1ccc(Cn2nnnc2C(c2ccccc2F)N(Cc2ccco2)CC2CCCO2)cc1 (stereo unspecified)	101.0	102.0	-0.2	-59.2
CCN(C(=O)C1CCN(S(=O)(=O)c2cccc3nsnc23)CC1)c1ccc(C)c(C)c1	97.0	103.0	-1.5	5.2
CCCOC(=O)c1cc(-c2ccc(/C=C3\C(=O)NC(=O)C(C#N)=C3C)o2)ccc1Cl	103.0	106.0	33.5	-7.3
Cc1ccc(C(=O)c2ccccc2C(=O)OCC(=O)c2ccc(F)cc2)cc1	101.0	106.0	-9.6	x
Cn1c(SCc2ccccc2)nnc1C1CCCN(C(=O)Cc2ccc3c(c2)OCO3)C1 (stereo unspecified)	102.0	103.0	-8.6	-32.1
Cc1cc(Cl)ccc1OCCCC(=O)Nc1ccc(S(=O)(=O)Nc2ncccn2)cc1	98.0	95.0	8.0	-7.9
CC(C(=O)NCc1ccccc1)n1c2ccccc2c2cn[nH]c(=O)c21 (stereo unspecified)	100.0	106.0	69.2	2.2
CCc1nccn1C(=O)CCCC(=O)O	103.0	99.0	14.6	12.8

Reformatted: entries from further up
CCc1nccn1C(=O)CCCC(=O)O
  PV pol inh: 103.0; PV pol inh intensity: 99.0; Mtb MbtI inh: 14.6; Mtb MenB inh: 12.8

CN(C)/N=C(\N)c1ccc(Cl)cc1
  PV pol inh: 102.0; PV pol inh intensity: 93.0; Mtb MbtI inh: -8.3; Mtb MenB inh: -6.0

CC(C)(C)P(=O)(N1CCOCC1)N1CCOCC1
  PV pol inh: 105.0; PV pol inh intensity: 109.0; Mtb MbtI inh: -2.6; Mtb MenB inh: -13.7

Cc1ccc(C(=O)c2ccccc2C(=O)OCC(=O)c2ccc(F)cc2)cc1
  PV pol inh: 101.0; PV pol inh intensity: 106.0; Mtb MbtI inh: -9.6; Mtb MenB inh: x
